# Screening data: PubChem BioAssay, several laboratories
# PKD1 inh – blocks activity of human protein kinase D1. Q15139. PKD1 kinase fluorescence polarization assay. inhibition, %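 (about 10 µM by stock and volumes)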. hit rate 0.056% among 200,000. AID 797;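 active = inhibition of 50% or more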;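 also: controls were vehicle for no effect and a reference inhibitor for full effect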
# Target sequence (Q15139 whole entry, looked up): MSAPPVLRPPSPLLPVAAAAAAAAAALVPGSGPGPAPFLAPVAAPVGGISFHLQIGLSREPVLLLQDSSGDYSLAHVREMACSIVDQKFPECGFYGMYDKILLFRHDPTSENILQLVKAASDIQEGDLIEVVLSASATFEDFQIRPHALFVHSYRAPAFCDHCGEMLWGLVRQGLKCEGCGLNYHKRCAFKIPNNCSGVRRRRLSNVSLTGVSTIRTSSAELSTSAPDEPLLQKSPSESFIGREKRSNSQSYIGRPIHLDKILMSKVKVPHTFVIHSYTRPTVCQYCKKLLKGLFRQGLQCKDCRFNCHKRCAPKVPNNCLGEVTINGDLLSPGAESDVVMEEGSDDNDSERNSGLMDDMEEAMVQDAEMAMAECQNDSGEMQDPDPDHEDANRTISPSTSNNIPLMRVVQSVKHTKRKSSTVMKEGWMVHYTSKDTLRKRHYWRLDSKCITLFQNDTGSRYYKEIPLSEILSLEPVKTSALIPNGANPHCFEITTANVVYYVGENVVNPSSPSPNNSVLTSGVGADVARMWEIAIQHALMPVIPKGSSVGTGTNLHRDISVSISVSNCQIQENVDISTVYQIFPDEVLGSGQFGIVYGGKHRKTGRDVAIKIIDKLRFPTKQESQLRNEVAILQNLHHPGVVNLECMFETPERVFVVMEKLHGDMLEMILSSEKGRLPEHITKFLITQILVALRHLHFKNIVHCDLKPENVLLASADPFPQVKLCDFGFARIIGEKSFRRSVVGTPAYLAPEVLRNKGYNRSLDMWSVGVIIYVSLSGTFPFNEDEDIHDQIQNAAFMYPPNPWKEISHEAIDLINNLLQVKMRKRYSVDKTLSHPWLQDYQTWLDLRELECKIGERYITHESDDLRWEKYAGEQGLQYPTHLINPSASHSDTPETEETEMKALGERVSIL
# RGS16-Gao – regulators of human RGS16-Galphao interaction; AID 1441; binding response (% of control), % at 10 µM; bead-based flow cytometry RGS16-Galphao binding, fluorescence; actives lie on both sides; hit rate 0.38% among 220,000;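 active = below 25% or above 175%, edge rows of some plates excepted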;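 also: Galphao activated by GDP with aluminum fluoride before binding; 100% = wells without compound and 0% = beads without RGS; some results beyond the cut were filed as inactive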
# GALR2 ag – agonists of human galanin receptor 2 (GALR2); O43603; GALR2-expressing cells, agonist activation read-out; activation, %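 (tested at 5 µM)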; hit rate 0.48% among 140,000; AID 803;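 active = above mean plus 3 SD of all compounds, about 5% in these data, not always enough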;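 also: 0% = vehicle buffer wells and 100% = reference agonist at full effect; tested in CHO reporter cells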
# Insulin prom inh – TRM-6 insulin promoter activity inhibition | AID 1273 | hit rate 0.9% among 130,000 | inhibition, % at 2 µM | TRM-6 cells (human fetal islet line), insulin promoter-eGFP reporter, imaging; reporter expression induced with tamoxifen;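 active = inhibition above the mean plus 3 SD, with well images judged a real hit on visual review, cut at about 60% in these data, passing the limit was not always enough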
# HSV replic up – increases HSV replication in cells. HSV replication augmentation in cells, fold increase. maximum fold increase. AID 1956. hit rate 0.005% among 220,000;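 active = peak rise of 1.5-fold or more in the series; tested in PC3 cells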;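 also: first round at 10 µM; read as green reporter fluorescence; hits show the peak of a series up to 25 µM; 1 = signal of infected wells without compound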
# Insulin prom inh cell count – second read-out of Insulin prom inh, no call of its own (marks repeat the call); normalized cell count, %; measured here: cell count, toxicity; reference of the scale not given here;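 cells exposed to compound for 48 h; stained nuclei by imaging scaled within each plate; lower means fewer cells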
# HSV replic up primary fold – recorded beside HSV replic up, whose call it bears; fold increase; compound at 10 µM; measured here: primary screen fold increase 10 uM; tested in PC3 cells;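 GFP signal in the first replicate; 1 = infected wells without compound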
# The depositor's hits bear a star; i = inactive; . = not tested or not shown.
SMILES,PKD1 inh,RGS16-Gao,GALR2 ag,Insulin prom inh,Insulin prom inh cell count,HSV replic up,HSV replic up primary fold
CC1(C)CC(=O)c2c(oc3ccc(NS(=O)(=O)c4ccc(C(=O)O)cc4)cc23)C1,-3.6,99.2,.,.,.,i,0.91
O=C(O)c1cccc(N2C(=O)C3CC=CCC3C2=O)c1 (configuration not stated),-6.5,111.1,-2.9,38.9,89.0,i,0.79
CC(=O)Nc1ccc(S(=O)(=O)N2CCN(c3cc(C(F)(F)F)ccn3)CC2)cc1,.,97.1,.,.,.,i,0.95
CCOc1c2ccc(C(=O)NCc3ccccc3OC)cc2nn1CC,-10.6,106.5,-3.5,.,.,i,1.07
COc1ccc(OCCCC(=O)NCCc2ccc(OC)c(OC)c2)cc1,-10.5,99.1,-0.6,-18.2,101.8,i,1.03
O=C(CCn1c(=S)[nH]c2ccccc2c1=O)NCCCN1CCOCC1,3.7,105.7,-0.7,.,.,i,0.89
C/C(CCc1ccc2c(c1)OCO2)=N\NC(=O)c1ccccc1Cl,-7.1,100.3,-1.8,0.0,125.9,i,0.86
Fc1ccccc1OCCCCCCN1CCCC1,4.6,109.8,-1.9,.,.,i,1
CCn1c(CSc2nnc(C)n2-c2ccccc2)nc2cc(S(=O)(=O)N(C)C)ccc21,-6.7,102.4,0.0,-47.1,93.7,i,0.79
COc1cccc(C2Nc3cccc4cccc(c34)N2)c1,.,106.0,.,.,.,i,0.95
O=C(Nc1cccc(-c2csc(Nc3ccc(Cl)cc3)n2)c1)c1cccc(C(F)(F)F)c1,.,97.2,.,.,.,i,0.63
COc1ccccc1NC(=S)N(Cc1ccccc1)Cc1cccs1,5.6,97.9,.,6.7,122.3,i,0.91
COc1ccc(/C=C/C(=O)OCC(=O)Nc2cc(C(F)(F)F)ccc2Cl)cc1,-14.3,110.9,-1.8,0.0,30.6,i,0.99
NC(=O)[C@@H]1CCCCNc2c(F)cc([N+](=O)[O-])cc2C(=O)N[C@@H](CC(=O)O)C(=O)N[C@@H](CCC(=O)O)C(=O)N1,0.5,98.2,-1.8,-127.3,144.0,i,0.97
CCN(CC)S(=O)(=O)c1cc(C(=O)N2CCc3ccccc32)ccc1Cl,-8.3,103.7,-2.4,-29.7,75.5,.,.
COc1ccc(/C=C/C(=O)OCC(=O)Nc2cc(S(=O)(=O)N(C)C)ccc2Cl)cc1,1.5,101.2,.,.,.,i,0.9
C=CCCCCCCCC(=O)OC,-8.3,101.1,.,.,.,i,0.72
CCO/N=C/C(=O)Nc1ccc(F)cc1F,5.2,99.4,.,.,.,i,0.93
COc1ccccc1C(=O)NCC(=O)N/N=C/c1ccncc1,-3.1,104.1,.,.,.,i,0.91
Cc1ccc(NC(=O)C2(NC(=O)c3cccc(N4C(=O)CSC4c4ccccc4)c3)CCCCC2)cc1 (configuration not stated),0.7,103.1,0.0,.,.,i,0.91
CC(=O)Nc1ccc(NC(=O)C2CCCCC2C(=O)O)cc1 (configuration not stated),-8.7,100.8,-0.8,14.3,137.3,i,1.04
CC(C)c1ccc(N(CC(=O)Nc2ccc(S(=O)(=O)N3CCOCC3)cc2)S(C)(=O)=O)cc1,-1.0,99.8,0.4,25.9,76.0,i,0.88
O=c1ccc(Cl)n[nH]1,.,94.2,.,.,.,i,1
COc1cc(-c2nnn(CC#N)n2)ccc1OCc1ccccc1,1.7,100.7,-2.5,.,.,i,1.07
Cc1ccc(C(=O)N/N=C2/NC(=O)CC(C(=O)Nc3ccccc3)S2)cc1 (configuration not stated),5.4,103.4,-0.8,.,.,i,1.17
O=C(Nc1nc2nccc(-c3ccccc3)n2n1)C(Cl)(Cl)Cl,-17.0,101.8,-1.1,23.1,72.7,i,0.98
Cc1ccc(CNS(=O)(=O)c2cccc3nsnc23)cc1,-0.1,101.2,.,.,.,i,1.1
O=C(CCC(=O)c1cccs1)OCc1nnc(-c2ccccc2)o1,1.1,99.8,-3.5,35.7,122.2,i,0.99
CC(COC(=O)c1ccccc1)(COC(=O)c1ccccc1)/[N+]([O-])=C/c1ccccc1,12.8,102.3,-1.2,35.5,65.1,i,1.09
COc1ccnc(N=CNOCc2ccc(Cl)cc2)c1C#N,.,99.7,.,.,.,i,0.93
COc1ccc(NC(=O)c2oc3ccccc3c2NC(=O)C(C)(C)C)cc1,-0.2,104.2,-0.1,9.1,135.1,i,0.92
Cc1cc(OCC(C)C)ccc1/C(O)=C1/C(=O)C(=O)N(Cc2cccnc2)C1c1ccncc1 (configuration not stated),-4.2,108.7,1.6,20.0,204.8,i,1.06
Cc1ccccc1-n1nc(C(=O)O)cc1-c1ccccc1,-0.9,99.3,-0.3,40.6,93.9,i,0.98
CCc1ccc(/C=C/C(=O)c2c(C)cc(C)[nH]c2=O)cc1,0.8,103.1,-2.4,46.1,136.4,i,0.6
O=C1/C(=C/N(C(=O)c2ccco2)c2ccc(Br)cc2)Sc2ccccc21,-0.8,54.6,-0.1,52.0,90.6,i,1.07
O=C(Oc1ccccc1)c1ccc2nccnc2c1,4.1,99.6,-3.3,-6.1,106.9,i,0.77
COc1ccc(/C=C/c2cc(=O)c3cc(Cl)ccc3o2)cc1,-1.2,122.4,-0.6,-14.8,129.0,i,0.88
CCn1c(COc2cccc(C)c2)nnc1SCC(=O)Nc1cccc(C(=O)O)c1,-9.2,103.7,-0.8,-81.0,104.3,i,0.95
O=C1NC(=O)/C(=C\c2ccc(O)cc2O)S1,-5.5,84.3,.,25.0,103.3,i,1.11
Cc1cc(C(=O)CCl)c(C)n1CCc1ccc(F)cc1,6.3,98.2,.,100.0*,6.8*,i,1.24
COc1cccc(OC)c1CN1CCCC(C(=O)c2ccccc2SC)C1 (configuration not stated),1.9,100.5,.,25.0,143.5,i,0.84
Cc1cc(C)cc(NC(=O)NC2CCN(CC(=O)Nc3c(C)cc(C)cc3C)CC2)c1,-2.2,.,-1.2,11.6,50.8,.,.
CCOc1cc(/C=C2/SC(=Nc3ccccc3)N(Cc3cccnc3)C2=O)ccc1OCC#N,-7.2,101.1,-2.9,.,.,i,0.67
COc1ccccc1Oc1c(C)oc2c(CN(C)C)c(O)ccc2c1=O,-1.0,104.7,0.1,42.9,99.6,i,1
COCc1cc(=O)[nH]c(/N=C(\N)Nc2ccc(C)cc2)n1,4.0,109.9,-3.0,50.0,93.3,i,0.93
Cc1ccc(N(C(C)C(=O)Nc2ccc(S(=O)(=O)N3CCOCC3)cc2)S(C)(=O)=O)cc1C (configuration not stated),0.2,100.4,0.7,-18.4,63.2,i,0.89
O=C(O)c1ccc(-c2nnn(Cc3ccccc3F)n2)cc1,.,101.8,.,.,.,i,0.78
O=c1ncn(-c2ccccc2C(F)(F)F)c2ncccc12,-7.0,99.6,-0.5,40.0,85.3,i,0.88
O=c1[nH]c(SCc2cccc([N+](=O)[O-])c2)nc2[nH]ncc12,-4.1,111.8,.,.,.,i,0.96
COCC(=O)Nc1ccc(-c2cn3cccnc3n2)cc1,-4.9,99.6,-1.8,36.4,107.7,i,1.09
COC(=O)[C@H](C)NC(=O)Nc1cccc(Br)c1,.,101.8,.,.,.,i,1.1
CC1=CC(=NOC(=O)c2cccc([N+](=O)[O-])c2)C=C(C)C1=O,-1.1,105.3,-2.0,50.0,138.3,i,1.22
CCCn1c(SCC(=O)NCc2cccs2)nc2c1c(=O)n(C)c(=O)n2C,-0.6,104.5,-1.3,.,.,i,0.89
CCC(=O)N1CCc2cc(S(=O)(=O)NCCN3CCC(C)CC3)ccc21,-0.7,103.4,0.5,-14.3,127.9,i,0.93
CC(c1ccon1)N(C)Cc1cn(C)nc1-c1ccc2c(c1)OCCO2 (configuration not stated),.,114.4,.,.,.,i,0.92
CCOc1ccc(NC(=S)N(CCc2c(C)[nH]c3ccc(C)cc23)Cc2ccncc2)cc1,-8.5,.,-0.2,-57.1,95.1,.,.
Cc1ccc(CNC(=O)CSc2nc3ccsc3c(=O)n2Cc2ccccn2)cc1,5.4,105.1,.,-2.7,119.4,i,0.81
COCc1ccc(C(=O)Nc2ccc(C(=O)O)cc2)o1,.,98.2,.,.,.,i,1.03
Cc1c2c(n3c(nc4ccccc43)c1C#N)N(CCN(C)C)CC2,1.8,103.6,.,-81.8,88.5,i,1.28
Nc1ccc2nc(C3CCCCC3)[nH]c2c1,-2.9,103.0,.,.,.,i,0.85
# The list goes on:
SMILES,PKD1 inh,RGS16-Gao,GALR2 ag,Insulin prom inh,Insulin prom inh cell count,HSV replic up,HSV replic up primary fold
CC(C)(C)N(NC(=O)Nc1ccccc1)C(=O)c1ccccc1,3.4,106.3,-2.4,-48.1,90.5,i,0.95
Cc1ccc2c(c1)N(CCCC(=O)NCCC1=CCCCC1)C(=O)CO2,21.3,101.6,1.0,.,.,i,1.11
Cc1nnc2sc(-c3ccncc3)nn12,-0.4,103.3,-0.7,.,.,i,0.9
COC(=O)CSC1=NS(=O)(=O)c2ccccc21,-1.3,67.3,-5.0,-100.0,105.0,i,1.03
CC(C)Sc1nnc2n(CCc3ccccc3)c(=O)c3c4c(sc3n12)COC(C)(C)C4,-1.3,.,-1.8,.,.,i,1.09
CC1(C)Cc2sc3c(=O)[nH]c(=S)[nH]c3c2CO1,.,92.7,.,.,.,i,0.97
CC1=CC=CN2C1=NC(=O)CC2(C)C(=O)N(CC(=O)NC1CCCC1)c1ccccc1C (configuration not stated),-1.4,101.9,.,.,.,i,0.97
COc1ccc(S(=O)(=O)N2CCOCC2)cc1NC(=O)CCc1c[nH]c2ccccc12,-2.5,97.5,.,.,.,i,0.93
O=C(O)CSc1c[nH]c2ccccc12,-4.4,116.5,-0.9,34.8,80.1,i,0.93
Cc1c(Cl)cccc1-n1c(SCC(=O)N(C)Cc2ccccc2)nnc1-c1ccncc1,-0.8,93.8,-1.3,-114.3,58.6,i,0.78
C=CCNC(=O)CCCOc1ccc(C)cc1,-2.7,112.0,-4.2,-46.9,95.9,i,1.13
CN(C)CCCN(C(=O)CCSc1ccccc1)c1nc2cc3c(cc2s1)OCO3,-9.1,100.7,.,-77.8,69.4,i,0.7
CSc1ncccc1C(=O)NCCc1ccccc1,-3.0,101.2,.,.,.,i,1.03
COc1ccc(-n2c(=S)[nH]c3cc(C(=O)NC4CCCCC4)ccc3c2=O)c(OC)c1,6.7,98.9,.,.,.,i,1.02
O=C(NCC1CCCCC1)c1ccco1,-13.8,101.2,-3.2,-14.7,82.3,i,0.92

# In another format: results already given
SMILES	PKD1 inh	RGS16-Gao	GALR2 ag	Insulin prom inh	Insulin prom inh cell count	HSV replic up	HSV replic up primary fold
C=CCCCCCCCC(=O)OC	-8.3	101.1	.	.	.	i	0.72
CCO/N=C/C(=O)Nc1ccc(F)cc1F	5.2	99.4	.	.	.	i	0.93
COc1ccccc1C(=O)NCC(=O)N/N=C/c1ccncc1	-3.1	104.1	.	.	.	i	0.91
Cc1ccc(NC(=O)C2(NC(=O)c3cccc(N4C(=O)CSC4c4ccccc4)c3)CCCCC2)cc1 (configuration not stated)	0.7	103.1	0.0	.	.	i	0.91
CC(=O)Nc1ccc(NC(=O)C2CCCCC2C(=O)O)cc1 (configuration not stated)	-8.7	100.8	-0.8	14.3	137.3	i	1.04
CC(C)c1ccc(N(CC(=O)Nc2ccc(S(=O)(=O)N3CCOCC3)cc2)S(C)(=O)=O)cc1	-1.0	99.8	0.4	25.9	76.0	i	0.88
O=c1ccc(Cl)n[nH]1	.	94.2	.	.	.	i	1
COc1cc(-c2nnn(CC#N)n2)ccc1OCc1ccccc1	1.7	100.7	-2.5	.	.	i	1.07
Cc1ccc(C(=O)N/N=C2/NC(=O)CC(C(=O)Nc3ccccc3)S2)cc1 (configuration not stated)	5.4	103.4	-0.8	.	.	i	1.17
O=C(Nc1nc2nccc(-c3ccccc3)n2n1)C(Cl)(Cl)Cl	-17.0	101.8	-1.1	23.1	72.7	i	0.98
Cc1ccc(CNS(=O)(=O)c2cccc3nsnc23)cc1	-0.1	101.2	.	.	.	i	1.1
O=C(CCC(=O)c1cccs1)OCc1nnc(-c2ccccc2)o1	1.1	99.8	-3.5	35.7	122.2	i	0.99

# Rows were taken by chance; 1.3% or so of the library scored in one or more.
